High-throughput results from PubChem.
2A Renilla – lowers the Renilla signal of an FMDV 2A StopGo reporter | Potency, µM (doses to about 57.5 µM), inactives show at the highest dose signal change, negative = less light | 0.32% of 120,000 active | HEK cells with a luciferase reporter of 2A StopGo recoding; active means well fitted falling curve with a large enough effect; inconclusive means small, poorly fitted or top-dose-only effect; inactive means no such curve, though single readings can be large or run the other way; further: nearly all actives have a fitted effect of over 55% in size; overnight with compound
StopGo FLuc – FMDV 2A StopGo reporter, firefly signal; AID 1745856; HEK cells with a luciferase reporter of 2A StopGo recoding; 0.23% of 120,000 active; Potency, µM (top dose mostly 57.5 µM), for the others: top-dose signal change, negative = less light; active = well fitted falling curve with a large enough effect; inconclusive = small, poorly fitted or top-dose-only effect; inactive = no such curve, though single readings can be large or run the other way; further: nearly all actives have a fitted effect of over 60% in size; overnight with compound
* hit, by the source's call; ? = inconclusive; & = joins results of further samples; [ ] = another dose, or the depositor's remark. On the % scale 0 is the no-effect control and ±100 the full control effect; potency means the concentration at half of the fitted maximal effect. The list is partial; rates above refer to the full screens.

SMILES	2A Renilla	StopGo FLuc
CC(OC(=O)Cn1[nH]c(=O)c2ccccc2c1=O)C(=O)Nc1ccccc1F (stereo not given)	-15%	-11%
O=C(Nc1ccc(Cl)cc1F)c1cc(S(=O)(=O)NC2CCCCCC2)ccc1F	165%[activator]	-16%
Cc1ccccc1OCC(=O)OCC(=O)c1ccc(Cl)cc1	-9%	-7%
CCn1nc(C(=O)Nc2nc3c(s2)CCC3)c2ccccc2c1=O	-12%	15%
Cc1ccc(CCNC(c2ccc(F)cc2)c2nnc(-c3ccccc3Cl)o2)cc1 (stereo not given)	66%[activator]	-7%
O=C(NC1CCCCC1)c1cc2ccccc2nc1Cl	26%	82%[activator]
COc1ccc(-c2nnc3n(CCc4ccccc4)c(=O)c4ccccc4n23)cc1	14%	104%[activator]
O=C(CSc1nnc(-c2cccs2)o1)Oc1ccccc1Cl	111%[activator]	-4%
CCOc1ccc(-c2cc(-c3nc(-c4ccc(C)cc4)no3)[nH]n2)cc1	-16%	26%
CC(NC(=O)CCSc1nc2ccccc2s1)c1ccc(F)cc1F (stereo not given)	-4%	-2%
Cc1ccc(Cn2ccn(Cc3ccccc3F)c(=O)c2=O)cc1	20%	21%
COc1cccc(/C=C/C(=O)c2ccc(C)c(C)c2)c1OC	26%	206%[activator]
CCC(Sc1nc2nccnc2c(=O)n1Cc1ccccc1Cl)C(=O)Nc1cccc(OC)c1 (stereo not given)	17%	-12%
CCCOc1ccc(C(=O)N(Cc2cccs2)c2ccc(C)cc2)cc1	96%[activator]	-8%
COc1ccccc1CNC(=O)CC1N=C2c3ccccc3N=C(SCC(=O)Nc3ccc(F)cc3)N2C1=O (stereo not given)	53%[activator]	36%[activator]
COc1ccc(S(=O)(=O)c2c(O)c3ccc(C(=O)Nc4ccccc4)cc3[nH]c2=O)cc1	-7%	-7%
CCc1ccc(N2C(=O)CN(S(C)(=O)=O)CC2(C)C(=O)NCc2ccccc2)cc1 (stereo not given)	8%	4%
Cc1cccc(-n2nnnc2SCC(=O)N(C)c2ccccc2C(=O)NCc2ccco2)c1C	23%	-4%
CCS(=O)(=O)N1CC(=O)N(c2cc(Cl)ccc2C)C(C)(C(=O)NC2CCCCCC2)C1 (stereo not given)	-7%	-12%
CC(C)C(C(=O)NC(c1ccccc1)C1CCCC1)c1ccccc1 (stereo not given)	26%	0%
Cc1ccc(CCNS(=O)(=O)c2cc(-c3cc(C)no3)ccc2C)cc1	-1%	-8%
CCOC(=O)C1CCCN(C(=O)c2cc3c(=O)[nH]c4ccc(C)cc4c3s2)C1 (stereo not given)	-15%	-24%
N#CC1=C(N)Oc2c(c(=O)[nH]c3ccccc23)C1c1ccc(Br)cc1 (stereo not given)	10%	0%
CC(=O)N1c2ccc(S(=O)(=O)N3CCCCCC3)cc2CC1C(=O)NCc1ccccc1 (stereo not given)	4%	-15%
O=C(Cn1ncc2ccccc2c1=O)Nc1cc(F)cc(F)c1	-10%	-2%

New compounds follow.
SMILES	2A Renilla	StopGo FLuc
CN(Cc1ccc(Cl)cc1Cl)C(=O)CCNC(=O)Nc1ccccc1	81%[activator]	1%
CCOC(=O)c1cc(-c2ccccc2)sc1NC(=O)CCN1CCC(C)CC1	19%	43%[activator]
COc1ccc(N2CCCCS2(=O)=O)cc1S(=O)(=O)Nc1ccc(Cl)cc1	-10%	3%
COc1cc(/C=C/C(=O)O)c(Br)c(Br)c1OC(C)C	16%	22%
Cc1cccc(CSc2nnc(CCCOc3ccc(Cl)cc3Cl)n2C)c1	-12%[1.06 µM]	-1%
CC(=O)c1cccc(NC(=O)c2cc3sc(Cl)cc3n2C)c1	22%	135%[activator]
CCOC(=O)c1c(-c2ccc(OC)cc2)oc2ccc(OCc3ccc(Br)cc3)cc12	-10%	-16%
Cc1ccc(Cl)c(NC(=O)CSc2nnc(C)n2C)c1	-8%	-9%
COc1ccc(Cl)cc1NC(=O)Cn1c(=O)n(Cc2ccco2)c(=O)c2ccc(C(=O)NC3CCCC3)cc21	12%	-1%
Cc1ccc2c(=O)cc(C(=O)Nc3nnc(C)s3)oc2c1	48%&-8%[activator]	74%&4%[activator]
Cc1ccc(C)c(CN2C(=O)c3ccccc3S(=O)(=O)c3ccc(C(=O)OCC4CCCO4)cc32)c1 (stereo not given)	36%[activator]	-16%
Cc1ccc(N2CC(NC(=O)c3cc4ccccc4o3)CC2=O)cc1 (stereo not given)	9%	-10%
COCCn1c(=O)c2c(nc(-n3nc(C)cc3C)n2Cc2ccc(F)cc2)n(C)c1=O	-1%	-8%
O=S(=O)(NCCc1cn2ccccc2n1)c1ccc(Cl)cc1C(F)(F)F	43%[activator]	6%
O=S(=O)(Nc1nc2ccccc2nc1NCc1ccc(Cl)cc1)c1cccs1	5%	-7%
O=C(NC1CC(=O)N(c2ccccc2)C1)C1CCCCC1 (stereo not given)	-11%	-15%
CCC(CC)NC(=O)COC(=O)CCS(=O)(=O)c1ccc(C)cc1	-9%	-16%
CN(C)CCNC(=O)c1cc2cc(Cl)ccc2[nH]1	-11%	-2%
COc1ccc(OC)c(CCNC(=O)c2cnn(-c3ccccc3)c2C2CCN(C(=O)OC(C)(C)C)CC2)c1	6%	-3%
O=C(CC1(O)C(=O)N(CCc2ccccc2)c2ccc(Br)cc21)c1ccc(F)cc1 (stereo not given)	37%[activator]	-3%
Cc1ccc(S(=O)(=O)c2nc(-c3ccc(F)cc3)oc2SCC(=O)NC2CCCCC2)cc1	6%	-13%
O=C(NCC(=O)N1CCN(S(=O)(=O)c2ccc3c(c2)OCCO3)CC1)c1ccc2c(c1)OCO2	3%	1%
Cc1nc(N2CCN(CC(=O)N3CCCC3)CC2)c(C#N)c2c1COC(C)(C)C2	-12%	-3%
CN(C)c1ccc(C=Nc2ccc(Nc3ccccc3)cc2)cc1	-7%	19%
O=C(Nc1cccc(CO)c1)c1cccc2cccnc12	5%	0%

Quoted from the listing.
O=C(NC1CC(=O)N(c2ccccc2)C1)C1CCCCC1 (stereo not given) in StopGo FLuc is listed with -15%
Cc1cccc(CSc2nnc(CCCOc3ccc(Cl)cc3Cl)n2C)c1 in StopGo FLuc is listed with -1%

(list continues)
SMILES	2A Renilla	StopGo FLuc
O=C(Cn1c(=O)n(Cc2ccco2)c(=O)c2oc3ccccc3c21)Nc1ccc(F)c(Cl)c1	12%	-11%
N#Cc1nn(-c2c(Cl)cc(C(F)(F)F)cc2Cl)c(N)c1S(=O)C(F)(F)F (stereo not given)	6%	-3%
CCCN(CCC)CCNC(=O)C1CCCN(S(=O)(=O)c2cccc3nsnc23)C1 (stereo not given)	-12%	-25%
COC(=O)/C(C#N)=C\c1ccc(OCc2ccc(Cl)cc2)c(OC)c1	6%	0%
O=C(CCCc1c[nH]c2ccccc12)N1CCCC1CN1CCCC1 (stereo not given)	-14%	-17%
COCCn1c2c(c(=O)[nH]c1=O)C(c1ccc(OC)cc1)C1=C(N2)c2ccccc2C1=O (stereo not given)	0%	37%[activator]
CN1CC[C@]23c4c5ccc(O)c4O[C@H]2[C@@H](O)C=C[C@H]3[C@H]1C5	-18%[114 µM]	-12%[22.9 µM]
Cc1ccc(CNC(=O)c2nn(C)c3c2CSc2ccccc2-3)cc1	-9%	-10%
O=C(CCc1ccccc1)NC1CCN(c2ccccc2S(=O)(=O)C(F)(F)F)CC1	?	-21%
Cc1ccccc1C(=O)Nc1cc(-c2ccc(Cl)cc2)nn1-c1ccccc1	8%	55%[activator]
O=C1CSC2(C(=O)Nc3ccccc32)N1c1cccc(Cl)c1 (stereo not given)	4%	0%
CCN(CC(=O)NC(C)C)C(=O)Cn1c(=O)c2c(ncn2CC(C)C)n(Cc2ccccc2)c1=O	5%	6%
CCCn1c(=O)sc2cc(NC(=O)COc3ccc(Cl)cc3)ccc21	-1%	8%
O=C(Nc1ccc(Cc2nc3ccccc3s2)cc1)C1CC=CCC1 (stereo not given)	62%[activator]	92%[activator]
Cc1ncc(-c2ccc(C)c(S(=O)(=O)Nc3cccc(C)c3C)c2)o1	162%[activator]	7%
Cn1nc(C(=O)N2CCN(c3ncccn3)CC2)c2ccccc2c1=O	-1%	4%
COc1ccc(Cn2c(SCc3ccc(C(=O)NC(C)c4ccccc4)cc3)nc3cccnc32)cc1 (stereo not given)	-7%	5%
COc1ccccc1C(=O)Nc1ccc(O)c(-c2nc3ccccc3o2)c1	-5%	4%
Cc1ccc(Nc2nnc(-c3ccc(C)c(S(=O)(=O)N4CCN(C)CC4)c3)c3ccccc23)cc1	-9%	-4%
Cc1ccc(S(=O)(=O)N2CCCCC2)cc1NC(=O)CN1C(=O)c2ccccc2S1(=O)=O	7%	5%
Cc1ccc(Sc2c(C)nn(C(=O)C3CCCN3S(=O)(=O)c3ccccc3)c2C)cc1 (stereo not given)	9%	10%
O=C(CNc1nc(Cl)nc2nc[nH]c12)NCCc1c[nH]c2ccc(Cl)cc12	5%	5%
Cc1c(C)c2ccc(OC(C)C(=O)NCCCN3CCOCC3)c(C)c2oc1=O (stereo not given)	-5%	1%
Cc1ccc(CNC(=O)Cn2c(=O)cc(C(F)(F)F)c3c(C)nn(C)c32)cc1	-17%	-17%
Cc1ccc(C)c(C(=O)OCC(=O)c2c[nH]c3ccccc23)c1	-4%	129%[activator]

6 of the compounds above, bar-delimited:
compound | 2A Renilla | StopGo FLuc
Cc1ccc(CNC(=O)c2nn(C)c3c2CSc2ccccc2-3)cc1 | -9% | -10%
Cc1ccc(Nc2nnc(-c3ccc(C)c(S(=O)(=O)N4CCN(C)CC4)c3)c3ccccc23)cc1 | -9% | -4%
Cn1nc(C(=O)N2CCN(c3ncccn3)CC2)c2ccccc2c1=O | -1% | 4%
Cc1ccc(CNC(=O)Cn2c(=O)cc(C(F)(F)F)c3c(C)nn(C)c32)cc1 | -17% | -17%
CCCn1c(=O)sc2cc(NC(=O)COc3ccc(Cl)cc3)ccc21 | -1% | 8%
O=C(CCc1ccccc1)NC1CCN(c2ccccc2S(=O)(=O)C(F)(F)F)CC1 | ? | -21%

More compounds
SMILES	2A Renilla	StopGo FLuc
COC(=O)c1cccc(CNc2ccc3c4c(cccc24)CC3)c1	4%[1.06 µM]	57%[activator]
CCOC(=O)c1ccc(NC(=O)c2oc(=O)c3ccccc3c2-c2ccccc2)cc1	-9%	-9%
CC(C)c1ccc(-c2cc(C(=O)O)[nH]n2)cc1	-1%[1.06 µM]	0%
Cc1ccc(Nc2nc(NCc3ccc(Cl)cc3)nc(N)c2[N+](=O)[O-])cc1	-8%	7%
NC(=O)c1nn(CC(=O)Nc2ccccc2OC(F)(F)F)c(=O)c2ccccc12	-10%	1%
CC(C)(C)CC(=O)N1CCC(C(=O)NCc2cccnc2)CC1	11%	0%
COc1ccc(/C=C2\Oc3cc(OS(=O)(=O)c4ccc(C)cc4)ccc3C2=O)c(OC)c1OC	2%	0%
Cn1cc(C(=O)N2CCCN(S(=O)(=O)c3ccc(F)cc3)CC2)cn1	-11%	1%
CCCCCCc1ccc(/C(C)=C\C(=O)O)cc1	-3%	0%
CCCCN(CC)CCCNC(=O)c1cn(C)c(=O)c2c1c1ccccc1n2C	-15%	6%
COc1ccc(-c2cn3nc(N4CCC(C(=O)NCc5ccccc5F)CC4)sc3n2)cc1	-13%	20%
CCc1ccccc1N(C)C(=O)Nc1cn(CC(C)C)c(=O)c2ccccc12	8%	-6%
O=C(c1cnc2c(c1)COc1ccccc1-2)c1ccccc1O	36%[activator]	214%[activator]
O=C(OC(C(=O)N1CCOCC1)c1ccccc1)c1n[nH]c(=O)c2ccccc12 (stereo not given)	4%	9%
CCOc1ccc(Nc2nc3ccccc3nc2NS(=O)(=O)c2ccc(Cl)s2)cc1	15%	8%
CC(C)Oc1ccc(CNC(=O)C2COc3ccccc3C2)cc1 (stereo not given)	-6%	76%[activator]
COc1ccc(-c2nc(SCC(=O)Nc3ccc(Br)cc3C)n[nH]2)cc1	19%	102%[activator]
O=C(NC(c1ccc(F)cc1)c1cccs1)C1CCN(Cc2ccncc2)CC1 (stereo not given)	24%	74%[activator]
Cc1cc2nc(-c3cccc(NC(=O)c4ccccc4[N+](=O)[O-])c3)oc2cc1C	-8%	0%
COc1ccccc1-c1nc(SCC(=O)Nc2ccccc2)n2[nH]c(=O)cc2n1	-21%	-8%
Cn1c(=O)c2c(nc(Cl)n2Cc2ccccc2C#N)n(C)c1=O	13%	25%
CCn1cc(C(=O)N2CCN(c3cccc(C)c3)C(C)C2)c(=O)c2cc(S(=O)(=O)N3CCOCC3)ccc21 (stereo not given)	49%[activator]	-6%

Some of these compounds in order of molar mass, rising.
SMILES	2A Renilla	StopGo FLuc
COc1ccccc1-c1nc(SCC(=O)Nc2ccccc2)n2[nH]c(=O)cc2n1	-21%	-8%
CCOc1ccc(Nc2nc3ccccc3nc2NS(=O)(=O)c2ccc(Cl)s2)cc1	15%	8%
COc1ccc(/C=C2\Oc3cc(OS(=O)(=O)c4ccc(C)cc4)ccc3C2=O)c(OC)c1OC	2%	0%

A run of entries from further up, as a working copy:
SMILES	2A Renilla	StopGo FLuc
COC(=O)c1cccc(CNc2ccc3c4c(cccc24)CC3)c1	4%[1.06 µM]	57%[activator]
CCOC(=O)c1ccc(NC(=O)c2oc(=O)c3ccccc3c2-c2ccccc2)cc1	-9%	-9%
CC(C)c1ccc(-c2cc(C(=O)O)[nH]n2)cc1	-1%[1.06 µM]	0%
Cc1ccc(Nc2nc(NCc3ccc(Cl)cc3)nc(N)c2[N+](=O)[O-])cc1	-8%	7%
NC(=O)c1nn(CC(=O)Nc2ccccc2OC(F)(F)F)c(=O)c2ccccc12	-10%	1%
